Screening data as filed in PubChem BioAssay.
CDC25B-CDK2 inh = primary biochemical HTRF screen for blockers of M-phase inducer phosphatase 2 binding to CDK2/cyclin A; P30305+P24941; HTRF CDC25B-CDK2/CyclinA binding, anti-His/anti-Flag; active compounds read high; z-score (no concentration beside the values); 0.72% of 94,000 active;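 note: score is relative to mean and SD of negative controls; strong numbers were not always called active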
TAR Tat displ = TAR RNA-Tat peptide displacers, HIV-1, primary screen, biochemical, FRET, FAM/TAMRA-labeled Tat. AID 1259389, 2018. HIV-1 TAR RNA, Tat peptide displacement FRET; active compounds read high. 0.6% of 100,000 active. z-score (test concentration not listed);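 note: score is relative to mean and SD of negative controls; some compounds called inactive have numbers as strong as hits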
The depositor's hits bear a star; / = not tested or not shown.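 Rule for the calls: active = z-score from 3 up in half or more of its runs; inactive = the rest.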 Hits appear at their usual frequency; 0.87% or so of the library scored in one or more.

The line under a structure holds: CDC25B-CDK2 inh	TAR Tat displ
> COc1cc(NS(=O)(=O)c2c(C)nc3sccn3c2=O)c(OC)cc1Cl
 : 0.52	1.2
> CN(CC(=O)Nc1ccc2c(c1)OCCO2)S(=O)(=O)c1ccc2c(c1)CCC(=O)N2
 : -0.55	/
> CSc1nnc(NC(=O)c2cc(=O)c3cc(Cl)ccc3o2)s1
 : -0.4	-0.38
> O=c1sc2sc(=O)sc2s1
 : -1.3	/
> C=CCSC1=C(C#N)C(c2cccc3ccccc23)CC(=O)N1 (stereo not drawn)
 : -0.93	1.1
> CCOC(=O)CSc1n[nH]c(=S)s1
 : -1.1	/
> CC(C)NC(=O)CC1Sc2ccc(S(=O)(=O)N(C)C)cc2N(C)C1=O (stereo not drawn)
 : /	1.8
> O=C(CC1=NS(=O)(=O)c2ccccc2N1)Nc1ccc(F)c(Cl)c1
 : /	0.78
> Cc1nc2sc(C(c3cccc(F)c3)N3CCN(c4ccc(F)cc4)CC3)c(O)n2n1 (stereo not drawn)
 : -0.57	/
> COC(=O)c1cc(S(=O)(=O)N2CCN(C(c3ccccc3)c3ccccc3)CC2)oc1C
 : -0.56	/

The last 5 records of the section before come first, to join the parts.
The line under a structure holds: CDC25B-CDK2 inh	TAR Tat displ
> CCOC(=O)CSc1n[nH]c(=S)s1
 : -1.1	/
> CC(C)NC(=O)CC1Sc2ccc(S(=O)(=O)N(C)C)cc2N(C)C1=O (stereo not drawn)
 : /	1.8
> O=C(CC1=NS(=O)(=O)c2ccccc2N1)Nc1ccc(F)c(Cl)c1
 : /	0.78
> Cc1nc2sc(C(c3cccc(F)c3)N3CCN(c4ccc(F)cc4)CC3)c(O)n2n1 (stereo not drawn)
 : -0.57	/
> COC(=O)c1cc(S(=O)(=O)N2CCN(C(c3ccccc3)c3ccccc3)CC2)oc1C
 : -0.56	/
> NC(=O)C1(N2CCCCC2)CCN(C(=O)Nc2ccc(Br)cc2)CC1
 : -1.1	/
> CC(=O)N1N=C(c2ccccc2)CC1c1cc2cc3c(cc2nc1Cl)OCCO3 (stereo not drawn)
 : -0.99	/
> CCCCC(O)(c1ccc(F)cc1)C(CN1CCOCC1)c1ccccc1 (stereo not drawn)
 : -1.1	1.5
> O=C1CC(c2cccc(Oc3ccccc3)c2)C2=C(CC(c3ccccc3Cl)CC2=O)N1 (stereo not drawn)
 : -1.9	0.89
> COc1ccccc1Nc1nc(-c2cccc(OC)c2OC)no1
 : /	-0.71
> COc1cccc(-c2noc(NCc3ccccc3)n2)c1OC
 : /	-0.29
> CCOC(=O)C1CCN(S(=O)(=O)c2ccc3c4c2CC(=O)N4CC(C)S3)CC1 (stereo not drawn)
 : /	0.03
> CCc1nn2c(=O)cc(CSc3nnc(NC(=O)C4CCCCC4)s3)nc2s1
 : /	0.79
> CCOc1ccc(NC2=NS(=O)(=O)C(c3cccc(Br)c3)=C2C)cc1
 : -1.7	-0.17
> COC(=O)c1cc(C)nc2c1c(=O)nc(SCc1ccccn1)n2C1CC1
 : /	0.31
> Cc1nn(CC(=O)N2CCCCC2)c(=O)c2cc3occc3n12
 : -1.9	0.33
> CCOc1ccc(-c2cc(-c3nc(-c4ccccc4)no3)[nH]n2)cc1
 : /	0.71
> NNC(=O)CS(=O)(=O)Cc1ccc(-c2csnn2)cc1
 : -2	/
> Fc1ccc(-n2cc(-c3ccccc3)c3c(NCc4cccnc4)ncnc32)cc1
 : /	1.5
> CCC1CN(C(=O)Nc2cccc(Br)c2)c2ccccc2O1 (stereo not drawn)
 : /	2.1
> Cc1ccc(-c2nnc3ccc(SCC(=O)c4ccccc4)nn23)cc1
 : -0.01	/
> CC1(C)CC(=O)C2=C(C1)OC(N)=C(C#N)C21C(=O)N(CO)c2ccccc21 (stereo not drawn)
 : 0.46	/
> Cc1sc2nc3n(c(=O)c2c1C)CCC3
 : 0.74	/
> CCc1ccc(Nc2c(C)c(C)nc3ncnn23)cc1
 : /	0.21
> CCOC(=O)c1c(N(C(C)=O)C(C)=O)sc(=S)n1-c1ccccc1
 : 0.18	1.3
> CCNS(=O)(=O)c1csc(C(N)=O)c1
 : /	0.52
> CCC(O)(c1ccc(Cl)cc1)C(CN1CCOCC1)c1ccc(Cl)cc1 (stereo not drawn)
 : 0.07	1.6
> COc1ccc(N2CCN(c3ncc4c(n3)CCN(Cc3ccc(Br)cc3)C4)CC2)cc1
 : /	1.3
> COCc1nnc(NC(=O)Cc2csc(C)n2)s1
 : 2	2
> CC(C)NC(=O)CN(C)c1nnc(N2CCCC2=O)s1
 : -0.51	2.4
> CCOC(=O)c1ccc(Nc2nc(CC(C)=O)ns2)cc1
 : -0.32	/
> O=S(=O)(Oc1ccc2nonc2c1)c1ccc(Cl)cc1Cl
 : -0.89	/
> COc1ccc(-c2nnc3c4cc(OC)ccc4n(Cc4ccccc4OC)cc2-3)cc1
 : -1.6	2.4
> CC(=O)N1CCC2(CC1)OC(=O)C(C)=C2C(=O)NCCCN1CC(C)CC(C)C1 (stereo not drawn)
 : /	0.7
> Cc1ccccc1C(=O)Nc1cnc2sc3c(n2c1=O)CCCC3
 : -1.9	0.97
> O=C1CCCC2=C1C(c1cccc(O)c1)NC(=S)N2 (stereo not drawn)
 : -1.3	/
> C=CCSc1nc2ccccc2n1CC(=O)O
 : -1.5	0.91
> COc1ccc(C(=O)OC2=CN(C(C)C)S(=O)(=O)c3ccccc32)cc1
 : 0.06	0.33
> Cc1ccc2[nH]cc(NC(=O)N3CC=CCC3)c(=O)c2c1
 : -0.08	2.2
> COC(=O)CSc1nc(N)nc(C)c1Cl
 : -0.93	0.14
> CCc1ccc(S(=O)(=O)Nc2cccc(-c3ccc(S(C)(=O)=O)nn3)c2)s1
 : /	-0.88
> O=S(=O)(NC1(C(F)(F)F)Oc2ccccc2O1)c1ccccc1
 : -2.5	/
> COc1cnc(CSc2nncn2C)cc1OCC(=O)Nc1ccc2c(c1)OCCO2
 : /	0.76
> CC(C)C(=O)Nc1ccc2c(c1)sc(=O)n2C
 : /	0.68
> O=C(OCc1cc(=O)n2c3c(sc2n1)CCCC3)c1ccc(NC(=O)C2CCCCC2)cc1
 : /	-3
> CCOC(=O)CNC(=O)N1CCc2cc(S(=O)(=O)N3CCC(C)CC3)ccc21
 : 0.12	0.52
> C=CCn1nc(SC)n2c(=O)c3c(nc12)-c1ccccc1CC3(C)C
 : 0.77	0.39
> CCc1ccc(-c2cc(C)no2)cc1S(=O)(=O)Nc1cccc(SC)c1
 : /	0.3
> S=C(NCCn1ccnc1)Nc1ccc(Cl)cc1
 : -2.1	/
> COc1ccc2nc(NC(=O)COc3ccc(F)cc3)sc2c1
 : /	0.6
> Cc1ccc2c(c1)NC(SCc1cccc(Cl)c1)=NS2(=O)=O
 : /	1.1
> COC(=O)CSc1nnc(C)c2c(C)n(-c3ccc(Cl)cc3)nc12
 : -0.52	-0.56
> O=C(CSc1ncn[nH]1)N1CCc2ccccc21
 : -1.2	0.55
> COCCOC(=O)C1=C(C)Nc2nc3ccccc3n2C1c1ccc(C(C)C)cc1 (stereo not drawn)
 : -0.34	-0.94
> COC(=O)c1c[nH]n2c(=O)cc(CSc3nnc4c5ccccc5nc(-c5ccccc5)n34)nc12
 : /	1.2

Next part.
The line under a structure holds: CDC25B-CDK2 inh	TAR Tat displ
> CC(C)(C=O)Cc1cc(C(C)(C)C)c(O)c(C(C)(C)C)c1
 : -2	/
> Cc1sc(-n2cccc2)c(C(C)NC(=O)Nc2cccc(Cl)c2C)c1C (stereo not drawn)
 : 0.57	-0.14
> O=C(c1noc2c1CCc1sccc1-2)N1CCN(c2ccccc2F)CC1
 : /	-0.13
> Cc1cccc2c1NC(=O)C2(O)CC(=O)c1ccc(-c2ccc(Cl)cc2)o1 (stereo not drawn)
 : /	-0.87
> O=C(Oc1ccc(Cl)c2cccnc12)N1CCCC1
 : -1.6	0.92
> COc1ccc(C2C(C(=O)c3cccs3)=C(O)C(=O)N2Cc2cccnc2)cc1OC (stereo not drawn)
 : -1.7	-0.63
> COc1ccc(N2C(=O)C3CCCN3C2c2cccc(OC)c2)cc1 (stereo not drawn)
 : -0.29	-0.15
> O=C(C1CCN(c2nn3c(=O)c4c(nc3s2)CCCC4)CC1)N1CCN(c2ccccc2F)CC1
 : /	3.5
> NCCNc1cccc2c(S(=O)(=O)O)cccc12
 : -1.9	/
> COc1ccc(C2C3=C(CC(C)(C)CC3=O)Nc3nc(SCc4ccccc4F)nn32)cc1OC (stereo not drawn)
 : -0.4	-0.43
> CS(=O)(=O)c1ncc(Cl)c(C(=O)Oc2ccccc2Cl)n1
 : -0.26	-0.12
> N#CC(C#N)=c1c2nn(Cc3ccccc3)nc2c(=C(C#N)C#N)c2nn(Cc3ccccc3)nc12
 : -1.6	/
> COCCNc1nc2c(c(=O)n(C)c(=O)n2C)n1Cc1ccc(Br)cc1
 : -0.11	-0.42
> Cc1c(C(=O)N2CCC(C)CC2)c(S(=O)(=O)N2CCN(C3CCCCC3)CC2)c(C)n1C
 : /	1.1
> CCN(c1ccccc1C)S(=O)(=O)c1ccc(N2CCCCS2(=O)=O)cc1
 : /	0.44
> CC1=NC(=S)C(C#N)C(C)=C1Cc1ccccc1 (stereo not drawn)
 : 0.32	/
> COc1ccc(OC)c(C2CC(=O)Nc3ccc4ccccc4c32)c1 (stereo not drawn)
 : 1.1	0.91
> O=C(C1=Cc2sc3c(c2CS1)CCCC3)N1CCN(c2ccc(F)cc2)CC1
 : /	0.41
> CCn1c(=O)c2c(nc3n2CCN3c2ccc(OC)cc2)n(C)c1=O
 : -2.8	0.84
> CC1(C)C(=O)N(CCN2CCC(C(=O)c3ccc(F)cc3)CC2)c2ccccc21
 : -0.38	/
> CCOC(=O)COc1cccc2nsnc12
 : -4.5	/
> COCCCNc1nc(Cc2ccccc2)nc2sc3c(c12)CCCC3
 : -0.97	/
> CCSc1ncc2c(=O)n(CC(=O)N3CCCc4ccccc43)cnc2n1
 : /	0.58
> Clc1ccc(-n2ncc3c(NCCCn4ccnc4)ncnc32)cc1
 : /	2.4
> COc1cccc(C2C3=C(CC(C)(C)CC3=O)Nc3ccc4ccccc4c32)c1OC (stereo not drawn)
 : -0.55	1.3
> CC(=O)N1c2ccccc2CC1C(=O)NCCc1c[nH]c2ccccc12 (stereo not drawn)
 : /	1.9
> Cc1nc2c(c(SCc3cccc(Br)c3)n1)CCC2
 : 2.7	1.4
> COC(=O)c1ccc(CSc2ncnc3ccccc23)o1
 : -0.81	/
> COc1ccc(-n2nnc(-c3nc(-c4ccc(C)cc4)no3)c2C)cc1
 : /	0.39
> CCOC(=O)c1c(NC(=O)c2ccc3snnc3c2)sc2c1CCC(C)C2 (stereo not drawn)
 : -0.97	0.24
> CCCc1cc(=O)[nH]c(SCC(=O)N2CCN(S(=O)(=O)c3ccc(C)cc3)C2)n1
 : -0.94	1.2
> Cc1cc(=O)nc2c3ccccc3n(C(C)C(=O)NCCN3CCOCC3)n12 (stereo not drawn)
 : -1.6	-4.1
> COC(=O)c1sc2ccccc2c1N
 : -2.2	-0.25
> COc1ccccc1NC(=O)c1nn(-c2ccccc2)ccc1=O
 : -1.7	1.1
> Cc1ccc(OS(=O)(=O)c2cc(Cl)c(Cl)cc2Cl)c([N+](=O)[O-])c1
 : -0.04	/
> Cc1noc(-c2ccccc2)c1NC(=O)Nc1cc(C2CC2)nn1C
 : -1.6	/
> CCn1nccc1C1CCCN1S(=O)(=O)c1ccccc1 (stereo not drawn)
 : -2.4	-1.4
> COc1ccc(Nc2c(-c3cc(Br)ccc3O)nc3cnccn23)cc1
 : 0.32	0.66
> CCOC(=O)Cc1c(C(=O)OCC)nnc2c(-c3ccccc3)c(C)nn12
 : -1.7	1.3
> CCC(CC)C(=O)OCc1cc(=O)n2oc(C)cc2n1
 : /	0.02

Sorted by heavy-atom count (falling): some entries from above.
The line under a structure holds: CDC25B-CDK2 inh	TAR Tat displ
> CCOC(=O)Cc1c(C(=O)OCC)nnc2c(-c3ccccc3)c(C)nn12
 : -1.7	1.3
> COc1ccc(Nc2c(-c3cc(Br)ccc3O)nc3cnccn23)cc1
 : 0.32	0.66
> Cc1ccc(OS(=O)(=O)c2cc(Cl)c(Cl)cc2Cl)c([N+](=O)[O-])c1
 : -0.04	/

More structures follow.
The line under a structure holds: CDC25B-CDK2 inh	TAR Tat displ
> CC1=C(C(=O)Nc2ccc(Cl)cc2)C2(CCN(S(C)(=O)=O)CC2)OC1=O
 : /	0.71
> N#Cc1cccnc1NNC(=O)COCC(=O)O
 : -1.2	/
> CCC1Sc2ccc(S(=O)(=O)Nc3ccc(C(C)C)cc3)cc2NC1=O (stereo not drawn)
 : /	0.49
> CCN1C(=O)c2cccc3c(S(=O)(=O)NC(Cc4c[nH]c5ccccc45)C(=O)O)ccc1c23 (stereo not drawn)
 : -2.4	0.58
> O=C(OCc1cc(=O)n2nc(C3CC3)sc2n1)c1cccs1
 : /	-0.17
> CC1CCC(O)(C2CCN3Cc4ccccc4N=C23)CC1 (stereo not drawn)
 : /	-0.14
> N/N=C(\N)c1ccc(C(F)(F)F)cn1
 : 0.54	/
> S=C1NCN(CC2CCCO2)CN1 (stereo not drawn)
 : -2.1	/
> CSc1cccc(NC(=O)NC(c2ccccc2)c2nnc(-c3ccccc3)o2)c1 (stereo not drawn)
 : /	0.56
> COCCn1c(SCC(=O)Nc2nnc(C)s2)nc2c(c1=O)SC(C)C2 (stereo not drawn)
 : -1.6	/
> O=C(COc1ccc(F)cc1)Nc1c(C(=O)N2CCOCC2)oc2ccccc12
 : /	1.6
> CC1=NS(=O)(=O)c2cc(S(=O)(=O)CC(=O)Nc3cccc(Cl)c3)ccc2N1
 : /	0.88
> O=C(NC1CC1)c1ccc(N2CCSc3ncccc32)s1
 : /	0.06
> O=[N+]([O-])c1cc(C2SCCS2)ccc1SCc1ccco1
 : -0.06	/
> O=C(NC1CCCC1)C1c2c(ccc3ccccc23)OCC(=O)N1Cc1ccc2c(c1)OCO2 (stereo not drawn)
 : /	4
> COc1cccc(S(=O)(=O)c2c[nH]c3ccc(Cl)cc3c2=O)c1
 : -2.1	3.1
> Cc1ccc(S(=O)(=O)Nc2ccc3c(c2)sc(=O)n3C)cc1
 : /	0.56
